# High-throughput results: PubChem, National Center for Advancing Translational Sciences (NCATS)
# NS1 function inh: blocks influenza NS1 protein function; S. cerevisiae slowed by influenza A NS1, growth recovery by OD600; Potency, µM (doses to about 46.1 µM), for inactives: top-dose activity, positive = more growth; 270,000 tested, 0.4% active; AID 2326; active means well fitted rising curve with a large enough effect; inconclusive means small, poorly fitted or top-dose-only effect; inactive means no such curve, though single readings can be large or run the other way; also: nearly all actives have a fitted effect of over 50% in size
#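 OD600 was taken as the measure of yeast growth restored by compound in an NS1-expressing S. cerevisiae strain. Cells had been washed out of glucose medium and diluted 1:100 into galactose -URA medium, pH 6.0.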
# RE007 growth inh: less growth of the S. pombe RE007 Vpr strain. S. pombe RE007 Vpr strain, BacTiter-Glo ATP luminescence, 24 h; control for the full effect not named in the record. Potency, µM (series often up to 92.2 µM), without a hit: at the top dose activity change, negative = less growth. 360,000 tested, 0.21% active. AID 651644; active = well fitted falling curve with a large enough effect; inconclusive = small, poorly fitted or top-dose-only effect; inactive = no such curve, though single readings can be large or run the other way;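 also: % is scaled to controls: 0 for no effect and ±100 for the full control effect; nearly all actives have a fitted effect of over 50% in size; the assay follows cell death caused by Vpr and the record does not say whether a fall means rescue or toxicity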
#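 Fission yeast RE007 carrying one integrated HIV-1 vpr copy, seeded at OD 0.01 in PMG+AL medium with 23 nL pinned compound. Grown 24 h at 30 degrees; viability read by BacTiter-Glo luminescence after 5 min.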
# Cruzain noTriton: blocks cruzain activity in detergent-free assay; P25779; AID 1476; purified cruzain, Z-FR-AMC fluorescence, no detergent; 200,000 tested, 2.3% active; Potency, µM, for inactives: max response, negative = inhibition, actives largely listed as inhibitors;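 also: plate controls were enzyme without inhibitor for no effect and buffer without enzyme for full effect; nearly all actives have a fitted effect of over 40% in size; top concentration of the series not given in the record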
# Target sequence (P25779 123-467 limits assumed): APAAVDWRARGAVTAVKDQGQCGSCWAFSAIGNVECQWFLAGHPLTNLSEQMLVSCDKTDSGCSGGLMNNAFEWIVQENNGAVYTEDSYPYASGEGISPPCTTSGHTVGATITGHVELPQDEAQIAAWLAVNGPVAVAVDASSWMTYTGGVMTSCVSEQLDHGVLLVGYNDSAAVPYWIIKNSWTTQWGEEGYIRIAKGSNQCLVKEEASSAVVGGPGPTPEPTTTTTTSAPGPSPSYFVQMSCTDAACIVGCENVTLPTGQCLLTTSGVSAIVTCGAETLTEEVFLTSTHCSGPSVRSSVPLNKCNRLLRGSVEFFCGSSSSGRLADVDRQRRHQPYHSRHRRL
#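 Detergent-free condition (0.00005% Triton X-100) in acetate buffer pH 5.5 with DTT. 1.5 nM enzyme and compound were pre-mixed 15 min, then 2 uM Z-FR-AMC substrate added; reaction progress from fluorescence change between first and third reads (60 s).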
# SARS PLP yeast: SARS-CoV PLP inhibition in yeast; S. cerevisiae expressing SARS-CoV PLpro, growth rescue; control for the full effect not named in the record; Potency, µM (doses to about 32.9 µM), inactives show at the highest dose activity, positive = growth rescue; 330,000 tested, 0.19% active; AID 485353; active means well fitted rising curve with a large enough effect; inconclusive means small, poorly fitted or top-dose-only effect; inactive means no such curve, though single readings can be large or run the other way; also: 0% is about no effect; nearly all actives have a fitted effect of over 55% in size; growth read by luminescence after 48 h
# StopGo reporter: FMDV 2A StopGo reporter, luciferase signal; human cells with a luciferase reporter of 2A StopGo recoding; control for the full effect not named in the record; Potency, µM (series often up to 57.9 µM), for the others: top-dose signal change, negative = less light; 410,000 tested, 1.2% active; active = well fitted falling curve with a large enough effect; inconclusive = small, poorly fitted or top-dose-only effect; inactive = no such curve, though single readings can be large or run the other way; tested in HEK293T cells; also: % is scaled to controls: 0 for no effect and ±100 for the full control effect; nearly all actives have a fitted effect of over 45% in size; luciferase light after 4 h
# MARV entry inh: Marburg virus entry inhibition; Marburg virus pseudotyped entry inhibition, cell reporter; control for the full effect not named in the record; about a third of the inactives were read at about 46 µM; Potency, µM (highest dose often 37.8 µM), for the others: at the top dose activity change, negative = inhibition, actives largely listed as inhibitors; 300,000 tested, 1.8% active; AID 540276; active = well fitted inhibition curve with a large enough effect; inconclusive = small, poorly fitted or top-dose-only effect, or effect the other way; inactive = flat fitted curve, though single readings scatter; tested in HEK293 cells; about a fifth of its hits are not listed in these tables; also: % is scaled to controls: 0 for no effect and ±100 for the full control effect; luciferase read-out
# Cruzain Triton: inhibitors of Trypanosoma cruzi cruzain with detergent; P25779; purified cruzain, Z-FR-AMC fluorescence, 0.01% Triton; Potency, µM, for inactives: max response, negative = inhibition, hits mostly inhibitors; 200,000 tested, 0.43% active; AID 1478;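 also: plate controls were neutral wells for no effect and buffer without enzyme for full effect; nearly all actives have a fitted effect of over 40% in size; top concentration of the series not given in the record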
#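 Steps: dispense cruzain (1.5 nM final) in acetate buffer pH 5.5 with DTT and 0.01% Triton X-100; pin-transfer compounds; incubate 15 min RT; add Z-FR-AMC (2 uM final); read fluorescence every 30 s, using the 60 s intensity change.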
# Lassa entry inh: inhibitors of Lassa virus binding or cell entry. Lassa virus pseudotype entry inhibition, cell reporter; control for the full effect not named in the record. Potency, µM (series often up to 37.9 µM), inactives show top-dose activity change, negative = inhibition, actives largely listed as inhibitors. 300,000 tested, 1.2% active. AID 540256; active means well fitted inhibition curve with a large enough effect; inconclusive means small, poorly fitted or top-dose-only effect, or effect the other way; inactive means flat fitted curve, though single readings scatter; tested in HEK293 cells; also: % is scaled to controls: 0 for no effect and ±100 for the full control effect; nearly all actives have a fitted effect of over 50% in size; luciferase read-out
# Active calls of the source: *; ? = inconclusive; . = not tested or not shown; & = joins results of further samples; [ ] = dose if it differs, or a comment. Unless noted, calls follow the shape of the dose curve; as a rule, active = well fitted curve in the direction sought with a large enough effect; inconclusive = small, poorly fitted or top-dose-only effect, or another doubt; inactive = no such curve, though single readings can be large; an effect the other way counts as inactive or inconclusive. Potency is read from the fitted curve at half-maximal effect.
SMILES,NS1 function inh,RE007 growth inh,Cruzain noTriton,SARS PLP yeast,StopGo reporter,MARV entry inh,Cruzain Triton,Lassa entry inh
O=C1CCCCC1Nc1ccc(Cl)cc1 (stereo not given),.,1%,.,.,-3%,9%,.,4%
COc1ccccc1-n1c(=O)c2c3c(sc2n2c(SC)nnc12)CCC3,.,-21%,.,.,-18%,4%&4%,.,-10%
O=S(=O)(/N=C(\c1ccccc1)N1CCOCC1)c1ccc(Cl)cc1,-1%,14%,-3%,-1%,26%,0%,1.4%,?
Cc1csc(NC(=O)Cn2nc(C)c([N+](=O)[O-])c2C)n1,.,-5%,.,0%,-10%,?,.,18%[46.1 µM]
COc1cccc(-c2cc(C(F)(F)F)nc(-n3cncn3)n2)c1,-5%,6%,17%,4%,-7%,?,6.2%,-8%
Cn1c(CCC(=O)Nc2ccccc2F)nnc1SCC(=O)Nc1ccccc1Cl,.,9%,.,1%,-3%,2%[46.1 µM],.,-18%[46.1 µM]
COc1cc(C(=O)N2C(=O)CCC2=O)cc(OC)c1OC,3%,2%,.,-1%,1%,0%,.,-8%
CCC(C(=O)NCCC1=CCCCC1)c1ccccc1 (stereo not given),2%,10%,7%,18%,0%,?,-1.0%,5%
COc1ccccc1NC(=O)CN(c1ccccc1OC)S(=O)(=O)c1ccccc1,15%,1%,.,-8%,-20%,.,.,.
C/C(=N\NC(=S)NC(C)C)c1ccccc1,-10%,-19%,.,-3%,1%,.,.,.
COc1ccc2[nH]c3c(c2c1)CCN1C(=O)N([C@@H](C)C(=O)NCc2ccco2)C(=O)[C@]31C,13%,0%,.,0%,-20%,.,.,.
Cc1ccc(C(=O)O/N=C(\N)Cc2cccs2)cc1[N+](=O)[O-],4%,-16%,.,0%,16%,.,.,.
Cc1cccc(NC(=O)C2CCCN(S(=O)(=O)c3cccs3)C2)c1C (stereo not given),-10%,-3%,.,1%,1%,4%[46.1 µM],.,-15%[46.1 µM]
O=C1NC(=S)NC1=Cc1ccc(Cl)cc1Cl,.,3%,.,.,-7%,7%[46.1 µM],.,?
CNC(=S)NNC(=O)COc1ccccc1C,-10%,2%,-2%,-8%,.,2%,7.5%,5%
COc1cc(OC)c(-c2nn3c(-c4ccncc4)nnc3s2)cc1OC,-36%,.,12%,-2%,.,-3%,0.4%,.
Cc1ccccc1C(=O)N1CCc2cc(-c3nc(NC(=O)Cc4ccc5c(c4)OCO5)sc3C)ccc21,?,-1%,3.2µM*,-17%,?,3%,-14%,?
Cc1ccc(C(=O)N/N=C2\CCSC2)cc1[N+](=O)[O-],21%,-9%,-10%,-13%,7%,0%,-0.4%,?
CC(C)c1nc2sc3ccccc3c(=O)c2c(=O)n1Cc1ccccc1,1%,-14%,.,2%,-1%,.,.,.
O=C(/C=C/c1ccccc1)c1ccoc1,-11%,?,4%,-20%,-17%,28%,-1.4%,6%
Oc1ccc(-c2csc(NCc3ccco3)n2)cc1,4%,-8%,1%,-13%,77%[activator],-21%,-2.0%,?
COc1ccc2c(CNC3CCCC3)c(C(=O)O)n(Cc3ccccc3C)c2c1,.,.,10%,.,6%,.,-0.8%,-17%[46.1 µM]
CC(O)[C@H]1CNC(=O)C(=O)N1CCCCC1CCCCC1 (stereo not given in full),-6%,11%,.,-2%,-13%,.,.,.
O=C(COc1ccc(Cl)cc1)NCCC1=CCCCC1,-48%,-6%,3%,-7%,.,6%,-8.3%,-3%
Cc1[nH]c2ccccc2c1C(=O)CN1CCC(C(N)=O)(N2CCCCC2)CC1,?,-2%,-6%,-6%,0%,13%,-2.0%,15%
CC(=O)c1ccc(NC(=O)CSc2ccc3nnc(-c4ccccn4)n3n2)cc1,8%,-11%,.,1%,10%,.,.,.
CCn1nc(C)c(/C=N/NC(=O)c2ccc3c(c2)c(C)c(C)n3Cc2ccccc2)c1C,10%,5%,?,-1%,?,-30%,2.0%,-29%
CCCc1c(C(=O)N/N=C/c2ccco2)nnn1-c1nonc1N,4%,5%,.,-1%,-4%,.,.,.
COc1cccc(NC(=O)c2ccc(S(=O)(=O)N3CCCC3)cc2)c1,-2%,-23%,.,-2%,-14%,?,.,.
CC1=NN(c2ccccc2)C(=O)C1C(=O)c1ccc(Cl)cc1 (stereo not given),-61%,11%,2%,-2%,?,1%,-4.0%,.
NC(=O)c1nn(CC(=O)Nc2ccc3c(c2)OCO3)cc1[N+](=O)[O-],.,-17%,.,-1%,-15%,30%[46.1 µM],.,-16%
O=c1ccn(CCCBr)c(=O)[nH]1,8%,22%,.,0%,8%,14%[46.1 µM],.,18%
CCc1nnc(NC(=O)C2Cc3ccccc3CN2S(=O)(=O)c2cccs2)s1 (stereo not given),?,-3%,-19%,3%,27%,7%&7%[46.1 µM],-2.3%,18%
O=c1c(NCCc2ccc(Cl)cc2)nccn1-c1ccccc1,.,.,-26%,.,11%,.,-6.0%,-8%[46.1 µM]
COc1cccc(C2NC(=O)NC(O)(C(F)(F)F)C2C(=O)c2cccnc2)c1OC (stereo not given),-1%,-10%,-1%,-1%,0%,4%,-2.6%,5%
O=C(CCc1nc2ccccc2c(=O)[nH]1)OCc1ccccc1F,-2%,-2%,-9%,15%,12%,-1%,0.3%,-17%
NS(=O)(=O)c1ccc(NC(=O)C2COc3ccccc3O2)cc1 (stereo not given),5%,1%,1%,-3%,5%,0%[46.1 µM],2.8%,12%
CCOc1ccc(NC(=O)c2cnn3c(C(F)F)cc(-c4ccc(C)cc4)nc23)cc1,.,.,11%,.,-15%,2%[46.1 µM],-0.9%,20%[46.1 µM]
COc1ccccc1NC(=O)c1oc2ccccc2c1NC(=O)Cc1cccs1,.,.,-12%,.,?,-8%[46.1 µM],-2.4%,-14%[46.1 µM]
COc1cccc(NC(=O)NCc2c(-c3ccccc3)noc2C)c1,-2%,-25%,.,0%,-14%,7%,.,-6%
O=C(Cc1c(C(=O)O)[nH]c2ccccc12)NC1CCCC1,.,3%,.,0%,-3%,8%[46.1 µM],.,?
CC(C)(C)c1ccc(/C=N/n2cnnc2)cc1,-2%,14%,.,-3%,0%,-14%[46.1 µM],.,-17%
CC(C)NC(=S)Nc1ccc2[nH]c(=O)[nH]c2c1,1%,-2%,.,0%,-11%,.,.,.
COC(=O)CN(c1ccccc1C)S(C)(=O)=O,6%,11%,-1%,1%,-15%,11%,1.1%,4%
O=c1cc(-c2ccco2)oc2ccc(Cl)cc12,-14%,1%,2%,-2%,29%,8%,-5.3%,1%
CC(C)n1nc(C(=O)NCCc2ccc(S(N)(=O)=O)cc2)c2ccccc2c1=O,2%,12%,-2%,4%,-9%,-2%[46.1 µM],1.5%,2%
C=CCNC(=O)c1ccc2nc(-c3ccccc3)c(-c3ccccc3)nc2c1,-16%,-26%,8%,14%,-25%,-25%,-0.7%,?
N#Cc1cc(C(=O)Cc2ccccc2)c[nH]1,2%,-7%,.,0%,1%,0%,.,-12%[46.1 µM]
COc1ccc(CCN2C(=O)N(c3ccc(F)cc3)C(=O)C2CC(=O)Nc2ccccc2)cc1 (stereo not given),.,.,-11%,.,-21%,?,-2.7%,-24%[46.1 µM]
NC(=Nc1ccc(Cl)cc1)c1ccccc1,.,3%,.,-3%,1%,?,.,22%[46.1 µM]

# (more compounds)
SMILES,NS1 function inh,RE007 growth inh,Cruzain noTriton,SARS PLP yeast,StopGo reporter,MARV entry inh,Cruzain Triton,Lassa entry inh
COc1cc2c(cc1OC)CN(c1ncccc1[N+](=O)[O-])CC2,-3%,7%,.,1%,13%,?,.,-1%[46.1 µM]
O=C(COC(=O)[C@@H]1CC(O)CN1S(=O)(=O)c1ccccc1[N+](=O)[O-])Nc1ccc2ccccc2c1 (stereo not given in full),-17%,10%,?,26%,5%,?,-20%,?
Cc1cc(C(=O)NCCc2ccc(S(N)(=O)=O)cc2)c(C)o1,-4%,8%,.,-1%,-20%,-1%[46.1 µM],.,6%
COc1ccccc1CNC(=O)c1n[nH]c2ccccc12,3%,-1%,.,-1%,17%,0%[46.1 µM],.,14%
CC(=O)c1ccc(NC(=O)CCCc2nc(-c3cccc(C)c3)no2)cc1,.,.,19%,.,-17%,-3%[46.1 µM],-3.5%,1%[46.1 µM]
COc1ccc(C)c2sc(NC(=O)c3ccc(S(=O)(=O)N4CCCCC4)cc3)nc12,.,.,-10%,.,-13%,.,2.8%,-11%[46.1 µM]
O=C(NCC1OCCCN1S(=O)(=O)c1ccc(F)cc1)C(=O)NC1CCCC1 (stereo not given),3%,-19%,.,-2%,-7%,21%,.,?
CC(=O)c1c(C)nc2ccc([N+](=O)[O-])cc2c1-c1ccccc1,-25%,-9%,.,0%,-13%,-9%,.,?
CCSc1nnc(C(N)Cc2ccccc2)o1 (stereo not given),-10%,4%,0%,2%,11%,-4%,8.8%,1%
COC(=O)c1c(NC(=O)C(C)Oc2ccc(Cl)c(C)c2)sc(C)c1C (stereo not given),.,.,-5%,.,0%,.,-2.2%,10%[46.1 µM]
Cc1cccc(N2CCN(C(=O)CCc3nnc4n(CC(C)C)c(=O)c5ccccc5n34)CC2)c1C,.,.,-3%,.,?,21%[46.1 µM],0.0%,.
CC1=Nc2ccccc2N=C(NC(=O)CSC(=S)N2CCCCC2)C1c1ccccc1 (stereo not given),7%,-7%,.,0%,-12%,10µM*,.,-5%[46.1 µM]
COc1cc2c(cc1OC)C(C)N(C(=O)c1cc3c(C)cc(C)cc3[nH]1)CC2 (stereo not given),-26%,-7%,.,-6%,-18%,3.2µM*,.,?
O=C(N/C(=C\c1ccco1)C(=O)N1CCCC1)c1cccs1,24%,-16%,-5%,3%,19%,3%,3.3%,-10%
CCOc1ccc(C(=O)NCCNC(=O)c2ccc(OCC)cc2)cc1,-3%,16%,.,3%,0%,?,.,15%[46.1 µM]
Cc1occc1-c1nnc(SCC(=O)c2cc3ccccc3oc2=O)o1,?,?,?,6%,0%,-5%,-4.7%,-12%
Cn1c(=O)cc(OCCCC(=O)NCc2ccc3c(c2)OCO3)c2ccccc21,-3%,15%,6%,-10%,-12%,.,-8.3%,.
COc1cccc(CN(C(=O)c2cc3ccccc3oc2=O)C2CC2)c1,-17%,19%,2%,-1%,49%[activator],2%,-10%,29%
